High-throughput results from PubChem.
Arbovirus anti = arbovirus infection inhibition | arbovirus infection cell-based antiviral screen | 200,000 compounds, 0.37% hits | inhibition, % at 10 µM;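 active means inhibition from about 30%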;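 further: bluetongue infection of BSR cells; cell survival read as ATP light after 72 h; 0% = infected wells without compound and 100% = uninfected wells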
RecA intein inh = Mtb RecA intein splicing inhibition; P9WHJ3; cell-free RecA intein splicing, fluorescence; inhibition, %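 (about 9 µM by stock and volumes)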; 290,000 compounds, 0.75% hits; AID 2221; in the data active means inhibition above about 30%; inconclusive means no clear call, values can overlap the other calls;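 further: 0% = vehicle wells and 100% = reference inhibitor control wells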
Target sequence (P9WHJ3 whole entry, looked up): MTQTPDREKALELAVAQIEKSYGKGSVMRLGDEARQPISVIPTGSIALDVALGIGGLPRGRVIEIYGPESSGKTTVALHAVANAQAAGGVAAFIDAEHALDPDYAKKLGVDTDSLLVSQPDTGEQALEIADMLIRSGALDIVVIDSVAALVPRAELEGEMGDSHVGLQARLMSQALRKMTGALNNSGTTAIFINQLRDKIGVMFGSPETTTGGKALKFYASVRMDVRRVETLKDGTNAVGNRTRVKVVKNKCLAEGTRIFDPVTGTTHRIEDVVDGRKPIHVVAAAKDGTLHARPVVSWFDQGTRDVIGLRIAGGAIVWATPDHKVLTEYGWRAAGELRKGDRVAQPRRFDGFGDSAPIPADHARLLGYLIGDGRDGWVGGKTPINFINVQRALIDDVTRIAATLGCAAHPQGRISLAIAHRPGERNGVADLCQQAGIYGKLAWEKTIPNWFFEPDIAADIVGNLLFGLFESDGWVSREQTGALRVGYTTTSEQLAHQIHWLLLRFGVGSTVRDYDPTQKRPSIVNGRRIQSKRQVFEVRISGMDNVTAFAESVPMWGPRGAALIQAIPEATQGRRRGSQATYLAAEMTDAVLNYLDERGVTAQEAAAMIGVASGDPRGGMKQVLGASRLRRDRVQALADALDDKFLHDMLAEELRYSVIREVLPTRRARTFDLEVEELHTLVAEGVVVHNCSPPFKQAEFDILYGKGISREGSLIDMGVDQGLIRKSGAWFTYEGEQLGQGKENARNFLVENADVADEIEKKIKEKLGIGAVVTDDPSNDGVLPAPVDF
YopH inh = blocks Yersinia enterocolitica YopH tyrosine phosphatase | inhibition, %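 (about 10 µM by stock and volumes)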 | fluorescence Ex485/Em525 | 140,000 compounds, 0.16% hits;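 active means inhibition of 50% or more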;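 further: controls were vehicle for no effect and minimum signal wells for full effect; inactives centre near -20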
Mtb H37Rv = M. tuberculosis H37Rv growth inhibitors, H37Rv strain (AID 1626); 220,000 compounds, 0.95% hits; one-dose inhibition, % at 10 µM; IC50 in µM for titrated hits; M. tuberculosis H37Rv growth inhibition; higher % means a stronger effect;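 active means confirmed in a dose series; inconclusive means inhibition above 80% but not taken into the dose series; inactive means below 80% or under 30% at every dose of the series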;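 further: bacteria incubated seven days before Alamar blue readout; 0% = bacteria only wells and 100% = bacteria with antibiotic wells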
Mtb bLac sens = beta-lactam sensitization of Mtb H37Rv | 330,000 compounds, 0.27% hits | inhibition, % at 25 µM | M. tuberculosis H37Rv growth with meropenem, percent inhibition; hits of this screen are not shown here;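 active means about 74% or more and at least 40 points above the plate without the antibiotic, then above 30% in a dose series; inconclusive means first-round hits that could not be retested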;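 further: growth measured after seven days incubation then overnight dye step; 0% = bacteria only wells and 100% = bacteria with antibiotic; twin plates without the antibiotic show which effects depend on it; some results filed as inactive read as strong as hits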
Arbovirus anti repeat = further read-out of Arbovirus anti, marked with its call; inhibition, %; measured here: 10K subset replicate screen; many hits read low in the repeat;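 first of two repeat runs on a subset; 0% = infected and 100% = uninfected wells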
* hit, by the source's call. Not all compounds are listed (hit frequency here may not be typical).

`C=CCN(c1ccccc1OC)S(=O)(=O)c1cccc(C(=O)OCC(=O)c2c[nH]c3ccccc23)c1` gave Arbovirus anti -3, RecA intein inh 0.7, YopH inh -23, Mtb H37Rv 9% and Mtb bLac sens 1.
For COc1cc2c(cc1OC)CN(C(=O)C(C)(C)C)CC2 the results were Arbovirus anti -1, RecA intein inh 1.6, YopH inh -10, Mtb H37Rv 1%, Mtb bLac sens 15 and Arbovirus anti repeat 6.
For O=C(CCS(=O)(=O)c1ccccc1)Nc1nc2cc3c(cc2s1)OCO3 the results were RecA intein inh 5.3, Mtb H37Rv -3% and Mtb bLac sens 18.
For COc1cc(/C=N/N2CCN(c3ccccc3OC)CC2)ccc1OC(C)=O the results were RecA intein inh -5.2 and Mtb bLac sens 0.
`O=C(O)CCCCn1c(SCc2ccccc2Cl)nc2ccsc2c1=O` gave Arbovirus anti -10, RecA intein inh 6.5 and Mtb H37Rv -2%.
Screening Cc1ccc(-c2noc(C3CCCN(C(=O)c4cccc(Cl)c4)C3)n2)o1 (stereo not given) returned RecA intein inh 1.6 and Mtb bLac sens -3.
Screening Cc1ccc(NCc2nnc(SCC(=O)c3ccc4c(c3)OCCO4)o2)c(C)c1 returned Arbovirus anti 6, RecA intein inh 1.3, YopH inh -23, Mtb H37Rv -1% and Mtb bLac sens 5.
`CCN(CC)c1ccc(N=Cc2c(O)n(CCc3ccc(OC)c(OC)c3)c(=O)[nH]c2=O)cc1` gave Arbovirus anti -9, RecA intein inh -1.1, YopH inh -17, Mtb H37Rv 5% and Mtb bLac sens -3.
`CC(C)c1ccc(S(=O)(=O)N2CCN(CCC(=O)Nc3ccc(N(C)C)cc3)CC2)cc1` gave Arbovirus anti -7, RecA intein inh -4.4, YopH inh 4 and Mtb H37Rv 6%.
For CCc1ccc(NC(=O)CNCc2ccc(OC)c(OC)c2)cc1 the results were RecA intein inh 3.7 and Mtb bLac sens 12.
For Cc1cccc(-n2ccnc2SCC(=O)O)c1C the results were Arbovirus anti 14, RecA intein inh -1.9, Mtb H37Rv -9% and Mtb bLac sens -2.
For CCCNC(=O)c1ccc(SC)cc1OC the results were Arbovirus anti -4, RecA intein inh 1.1, YopH inh -30, Mtb H37Rv -8% and Mtb bLac sens -3.
CC[C@@H](C)[C@H](NC(=O)OC(C)(C)C)c1nnc(S(=O)(=O)Cc2cc(C)ccc2C)o1 was read as Arbovirus anti -45, YopH inh -21, Mtb H37Rv 4% and Mtb bLac sens 42.
`COc1ccc[nH]c1=O` gave Arbovirus anti 10, RecA intein inh -1.2, YopH inh -62, Mtb H37Rv -4% and Mtb bLac sens 1.
For CN(C)CCN1C(=O)C(O)=C(C(=O)c2cc3ccccc3o2)C1c1cccc(Br)c1 (stereo not given) the results were Arbovirus anti 5, RecA intein inh 3.7, YopH inh -21, Mtb H37Rv 0% and Mtb bLac sens 0.
For CCOc1cc(C2C(C#N)=C(N)Oc3n[nH]c(-c4ccncc4)c32)cc([N+](=O)[O-])c1O (stereo not given) the results were Arbovirus anti 7, RecA intein inh 12, Mtb H37Rv 2% and Mtb bLac sens 4.
For CCCC(=O)N(CCN1CCOCC1)c1nc2c(OC)ccc(OC)c2s1 the results were RecA intein inh 3.1 and Mtb bLac sens inconclusive.
Screening C=CCn1c(O)c(C(CC)=NCCC2=CCCCC2)c(=O)[nH]c1=O returned Arbovirus anti -6, RecA intein inh -0.3, YopH inh -9, Mtb H37Rv -10% and Mtb bLac sens 1.
For CCN1CCN(C(=O)Cc2coc3ccc4ccccc4c23)CC1 the results were Arbovirus anti 1, RecA intein inh 1.5, YopH inh -5, Mtb H37Rv -13% and Mtb bLac sens 6.
For CCCCCC(=O)Nc1cc(S(=O)(=O)N2CCOCC2)ccc1N1CCCC1 the results were RecA intein inh -0.3 and Mtb bLac sens -8.
COC(=O)[C@H](Cc1ccccc1)NC(=O)N(C)Cc1ccccc1 was read as RecA intein inh -0.9, Mtb H37Rv 1% and Mtb bLac sens -7.
CCOC(=O)CC1C(C(=O)OCC)ON2OC(C(=O)OC)C(C(=O)OCC)C12 (stereo not given) was read as Arbovirus anti -4, RecA intein inh -0.3, YopH inh -5, Mtb H37Rv 9% and Mtb bLac sens 1.
`O=C(c1cc(C(=O)NCc2ccc(Cl)cc2)c(=O)n(Cc2ccc(Cl)cc2)c1)c1cc(F)ccc1O` gave Arbovirus anti -4, RecA intein inh 3.1, YopH inh -19, Mtb H37Rv 17% and Mtb bLac sens 18.
`CC(C)CC(=O)Nc1ccc(Cc2ccncc2)cc1` gave RecA intein inh 0.8 and Mtb bLac sens 4.
For COC(=O)CC(NC(=O)c1ccc(C)cc1)c1ccc2c(c1)OCO2 (stereo not given) the results were Arbovirus anti -3, RecA intein inh -3.3, YopH inh -17, Mtb H37Rv -1% and Mtb bLac sens -7.
CCOC(=O)C(Cc1c[nH]c2ccccc12)NC(=O)CNC(C)=O (stereo not given) was read as Arbovirus anti 17, RecA intein inh -1.3, YopH inh -3, Mtb H37Rv -6% and Mtb bLac sens -6.
Screening O=C(c1ccc(Br)cc1)N1CCCC1 returned Arbovirus anti 0, RecA intein inh 2.1, YopH inh -10, Mtb H37Rv -10% and Mtb bLac sens -4.
COc1ccc2[nH]c(=O)c(-c3nnn(-c4ccccc4)n3)cc2c1 was read as Arbovirus anti -1, RecA intein inh -3.9, Mtb H37Rv 0% and Mtb bLac sens 5.
`COc1ccc(OCCNC(=O)Nc2cc(F)c(F)cc2Cl)cc1` gave Arbovirus anti -1, RecA intein inh 0.6, Mtb H37Rv 7% and Mtb bLac sens -3.
`Fc1ccc(NC(=S)NCc2cccs2)cc1` gave Arbovirus anti 3, RecA intein inh -0.9, YopH inh -27, Mtb H37Rv 10% and Mtb bLac sens 86.
CCOC(=O)c1[nH]nc(-c2cc(CC)c(O)cc2O)c1-c1cscn1 was read as Arbovirus anti 22, RecA intein inh -2.3, YopH inh -36, Mtb H37Rv -4% and Mtb bLac sens 3.
O=C(Nc1ccc(S(=O)(=O)N2CCCC2)cc1)C1CC(=O)N(c2ccccc2)C1 (stereo not given) was read as Arbovirus anti 2, Mtb H37Rv -6% and Mtb bLac sens -4.
For COc1cc(NC(=O)CN2CCN(c3ccccc3O)CC2)c(C)cc1[N+](=O)[O-] the results were Arbovirus anti 4, RecA intein inh -0.7, YopH inh -12, Mtb H37Rv 6% and Mtb bLac sens -9.
Screening Cc1c(/C=N/NC(=O)c2sc3ccccc3c2Cl)cnn1C returned Arbovirus anti -3, RecA intein inh 0.1, YopH inh -35, Mtb H37Rv 32% and Mtb bLac sens -2.
`Cc1nn(C)c(C(=O)Sc2ccccc2)c1[N+](=O)[O-]` gave RecA intein inh 8.3, Mtb H37Rv -4% and Mtb bLac sens 4.
COc1ccc(/C=C(\C#N)C(=O)C(C)(C)n2cncn2)cc1 was read as Arbovirus anti 3, RecA intein inh 7.0, Mtb H37Rv 2% and Mtb bLac sens -3.
For Nc1ncnc2nc(N3CCN(C(=O)c4ccccc4)CC3)[nH]c12 the results were Arbovirus anti 6, RecA intein inh -2.9, YopH inh -40, Mtb H37Rv -3% and Mtb bLac sens -4.
`CCc1ccc(C2CC(c3ccccc3)Nc3nc(N)nn32)cc1` (stereo not given) gave Arbovirus anti 14, RecA intein inh 6.1, Mtb H37Rv -8%, Mtb bLac sens 3 and Arbovirus anti repeat -1.
COc1ccc(Cl)cc1C(=O)Nc1nc2ccccc2[nH]1 was read as RecA intein inh -2.2 and Mtb bLac sens 80.
CN1CCN(/N=C/c2nc(-c3ccccc3)n3ccccc23)CC1 was read as Arbovirus anti 11, RecA intein inh -10, YopH inh -14, Mtb H37Rv 6% and Mtb bLac sens -4.
Screening Cc1cccc(NC(=O)c2cnccn2)c1 returned RecA intein inh -2.2 and Mtb bLac sens 2.
For C=CCN1C(=O)C2(NC(=O)c3ccccc3N2)c2ccccc21 (stereo not given) the results were Arbovirus anti -19, RecA intein inh -5.5, Mtb H37Rv -3% and Mtb bLac sens 0.
O=C(C1CCCN(S(=O)(=O)c2cccc3nsnc23)C1)N1CCN(c2ccccn2)CC1 (stereo not given) was read as Arbovirus anti -3, RecA intein inh 0.7, YopH inh -30, Mtb H37Rv 6% and Mtb bLac sens -8.
COCc1cc(C)nc2sc(C(=O)OC)c(N)c12 was read as Arbovirus anti -4, RecA intein inh -9.2, YopH inh -7, Mtb H37Rv 4% and Mtb bLac sens -3.
For CCCCNC(=O)c1cc2cc(CC)ccc2[nH]1 the results were RecA intein inh -0.3, Mtb H37Rv -1% and Mtb bLac sens 0.
For CCOC(=O)N1C(=O)c2cc(OC)ccc2S1(=O)=O the results were Arbovirus anti 2, RecA intein inh -4.8, YopH inh -30, Mtb H37Rv 3% and Mtb bLac sens -7.
COc1ccc(NC(=O)c2cccc(N3C(=O)C4C5C=CC(C6CC56)C4C3=O)c2)cc1 (stereo not given) was read as RecA intein inh 3.0 and Mtb bLac sens inconclusive.
`O=C(c1cccc(OC2CCN(Cc3cc(F)cc(F)c3)CC2)c1)N1CCCC1` gave RecA intein inh 0.9 and Mtb bLac sens 3.
O=c1[nH]c2ccccc2n1CCCSCCCn1c(=O)[nH]c2ccccc21 was read as Arbovirus anti 17, RecA intein inh -0.9, YopH inh -18, Mtb H37Rv -2% and Mtb bLac sens -5.
For O=C(Nc1ccccc1Cc1ccccc1)c1ccccc1F the results were RecA intein inh 2.7 and Mtb bLac sens -4.
NNc1nc2c(Cl)cccc2s1 was read as Arbovirus anti 14, RecA intein inh -2.8, YopH inh -22, Mtb H37Rv 5% and Mtb bLac sens inconclusive.
Screening O=c1[nH]c(C2CCN(S(=O)(=O)Cc3ccccc3)CC2)nc2c1nnn2Cc1ccccc1 returned RecA intein inh -1.2 and Mtb bLac sens 0.
Screening C(=N\Nc1nc(N2CCOCC2)nc(N2CCOCC2)n1)/c1cccnc1 returned Arbovirus anti 2, RecA intein inh -2.1, YopH inh -41, Mtb H37Rv -2% and Mtb bLac sens -8.
Screening CCc1nc(N)nc(N)c1-c1ccc(Cl)cc1 returned Arbovirus anti -34, RecA intein inh -7.1, YopH inh -44, Mtb H37Rv 7% and Mtb bLac sens 35.
Cc1cc(C)n(CCO)c(=O)n1 was read as Arbovirus anti 7, RecA intein inh 2.4, YopH inh -30, Mtb H37Rv 3% and Mtb bLac sens -6.
For Cc1nc2nc(C)c(CCC(=O)NC3CCCCC3)c(C)n2n1 the results were Arbovirus anti 4, RecA intein inh -0.6, Mtb H37Rv 3% and Mtb bLac sens 1.
Screening Cc1cc(F)ccc1S(=O)(=O)Nc1ccccc1C(=O)Nc1ccccc1N1CCOCC1 returned Arbovirus anti 5, RecA intein inh 5.7, YopH inh -25, Mtb H37Rv 14% and Mtb bLac sens -10.
Screening CC(=O)c1ccc(NC(=O)Nc2sc(NS(=O)(=O)c3ccccc3)nc2C)cc1 returned Arbovirus anti 3, RecA intein inh -5.7, Mtb H37Rv -2% and Mtb bLac sens 3.
Screening Cn1cc([C@@H]2C[C@H]3CN(C4CCCC4)C(=O)[C@]34CCCN24)c(-c2ccccc2)n1 returned Arbovirus anti -7, RecA intein inh -0.2, Mtb H37Rv 0% and Mtb bLac sens 5.
`COc1cccc2c(=O)n(CC(=O)N3CCC(C)CC3)ccc12` gave Arbovirus anti 7, RecA intein inh 1.6, YopH inh -27, Mtb H37Rv 4% and Mtb bLac sens 4.
Screening Cc1ccc2c(c1)C1CN(C)CCC1N2C(=O)COc1ccc(S(=O)(=O)N2CCOCC2)cc1 (stereo not given) returned Arbovirus anti 6, RecA intein inh -0.8, YopH inh -43, Mtb H37Rv -4% and Mtb bLac sens 8.
CCN(CC)C(=O)c1cn(CCC#N)nc1-c1ccc2ccccc2c1 was read as RecA intein inh -0.5 and Mtb bLac sens -6.
Screening O=C(Cn1[nH]c(=O)c2ccccc2c1=O)NNC(=O)c1ccccc1 returned Arbovirus anti 7, RecA intein inh 4.5, Mtb H37Rv -4% and Mtb bLac sens -3.
Screening O=C(CCC(=O)N1CCOc2ccccc21)Nc1cc(F)ccc1F returned RecA intein inh -1.3 and Mtb bLac sens -2.

Structural class, the entries above with a cyano group
For CCOc1cc(C2C(C#N)=C(N)Oc3n[nH]c(-c4ccncc4)c32)cc([N+](=O)[O-])c1O (stereo not given) the results were Arbovirus anti 7, RecA intein inh 12, Mtb H37Rv 2% and Mtb bLac sens 4.
COc1ccc(/C=C(\C#N)C(=O)C(C)(C)n2cncn2)cc1 was read as Arbovirus anti 3, RecA intein inh 7.0, Mtb H37Rv 2% and Mtb bLac sens -3.
CCN(CC)C(=O)c1cn(CCC#N)nc1-c1ccc2ccccc2c1 was read as RecA intein inh -0.5 and Mtb bLac sens -6.
